High-throughput results from PubChem.
NPYLR7 agonist = mosquito NPYLR7 agonism | HEK293T NPYLR7/Galpha15, GCaMP6s calcium fluorescence | activation, % at 10 µM | 270,000 tested, 0.15% active; in the data active = activation above about 40%;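 also: 0% = vehicle and 100% = reference agonist at the receptor; some compounds past the cut are filed as inactive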
NPYLR7 agonist max-min = also measured in NPYLR7 agonist; calls as there; activation, %; measured here: Max-Min RFU normalised activation; some inactives read as strong as hits;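 span of the calcium signal over five minutes; 0% = vehicle and 100% = native peptide agonist; compound fluorescence can raise it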
Numbers without * were called inactive; & = joins results of further samples.

molecule | NPYLR7 agonist | NPYLR7 agonist max-min
O=C(NC1CCN(c2nccc(C(F)(F)F)n2)CC1)c1ccncc1 | 4 | 5
CC(C)(C)C(NCN1C(=O)CC2(CCCC2)C1=O)c1cccs1 (stereo unspecified) | 1 | 10
CC(C)Cc1noc(CN2CCCC2CN2CCCC2CO)n1 (stereo unspecified) | 1 | -1
OC(Cc1ccccc1)CN(Cc1cccc(C(F)(F)F)c1)CC1CC(c2ccc(F)cc2)=NO1 (stereo unspecified) | -1 | 2
Clc1ccccc1-c1nnc(SCc2ccccc2)o1 | -4 | -3
CN(Cc1cc(Br)cs1)C(=O)C1CC1c1cnn(C)c1 (stereo unspecified) | 1 | 0
CCCC1(NC(=O)CN2CCOc3ccccc3C2)CC1 | -4 | -3
O=C(CN(CCCN1CCOCC1)C(=O)Nc1cc(C(F)(F)F)cc(C(F)(F)F)c1)N(Cc1ccc2c(c1)OCO2)Cc1ccco1 | -1 | -5
O=C(c1cccnc1Oc1ccc(Cl)cc1)N1CCN(C(=O)c2cc(-c3ccccc3)nc3ccccc23)CC1 | -4 | -10
CC(C)(C)CC(=O)N(Cc1ccco1)Cc1cc(Cl)ccc1OS(C)(=O)=O | 9 | 19
CCOC(=O)C1(NCc2noc(-c3ccccc3)n2)CCCC1 | 3 | 2
Cc1ccc(CN(Cc2ccc3c(c2)OCO3)C(=O)CN(CCN2CCOCC2)C(=O)CC(C)C)o1 | 0 | 6
Cc1nc2cc(OCc3cc(C(=O)N4CCSCC4)no3)ccc2s1 | 20 | 10
COc1ccc(-c2csc(CNC(=O)Cn3cnnn3)c2)cc1 | 8 | 7
CCOCCOC(=O)C1=C(C)NC2=C(C(=O)CCC2)C1c1cccc(OC)c1 (stereo unspecified) | 0 | -12
COC(=O)c1ccc(Oc2coc3c4c(ccc3c2=O)OCN(Cc2cccnc2)C4)cc1 | 2 | -2
COc1ncc(C(=O)NC2CC(=O)N(Cc3cccc(F)c3)C2)cn1 (stereo unspecified) | 1 | -3
CC1Oc2ccc(C#N)cc2N(Cc2ccc(F)cc2)C1=O (stereo unspecified) | 6 | 5
CCOc1ccccc1N1CCN(C(=O)C(C)C)C(C)C1=O (stereo unspecified) | 11 | 17
CCC(=O)N(c1nnc(SCC(=O)c2[nH]c(C)c(C(C)=O)c2C)s1)C1CC1 | 7 | 6
CC(C)(C)c1ccc(CC(=O)N2CCC2(C)C(=O)NS(=O)(=O)c2ccccc2C(F)(F)F)cc1 (stereo unspecified) | 1 | -2
COc1ccc(CNC(=O)c2cccnc2NC(C)C)cc1 | 3 | 5
COc1cccc(-c2cc(-c3ccc(C(=O)NCCSCc4ccccc4)cc3)[nH]n2)c1 | 31 | 15
CCCCCc1nnc(NC(=O)Nc2[nH]c(C)c(C(=O)OCC)c2C)s1 | 7 | 5
Cc1ccccc1CC(=O)N1C[C@@H](C(=O)O)C[C@@H](C(=O)N2CCN(C)CC2)C1 | 22 | 8
CC(C)Oc1cccnc1C(=O)Nc1nncn1Cc1ccccc1 | -9 | -15
Cc1nnc(NC(=O)CC23CC4CC(CC(C4)C2)C3)s1 | 10 | 4
CC(C)c1nc(CNC(=O)c2ccc(-c3ccoc3)nc2)no1 | 0 | -3
CC(C)Oc1ccc(-c2ccncn2)cc1 | 12 | 8
C[C@H](C(=O)N1CCSCC1)C1CC[C@@]2(C)Cc3sc(C4CCNCC4)nc3[C@@H](C)[C@@H]2[C@H]1O (stereo partly specified) | -8 | -13
Cc1ccc2oc(C(=O)N3CCC(O)(Cn4ccnc4)CC3)cc2c1 | -4 | -11
Cc1ccc(-c2nnc3ccc(SCC(=O)N4CCCCCC4)nn23)cc1 | 9 | 13
Cc1ccc(C(=O)N2CCC2(C)C(=O)O)cc1F (stereo unspecified) | 1 | -3
CCOc1ccccc1NC(=O)N1CCC(Cc2ccc3c(c2)OCO3)CC1 | 2 | 8
COc1ccc(-c2nn(-c3ccccc3C)cc2CN2CCOCC2)cc1F | -4 | -7
O=C(COC(=O)C12CC3CC(CC(Br)(C3)C1)C2)c1ccc(Cl)s1 | 11 | 8
Cc1csc(N2CCCN(CC(=O)Nc3ccc(F)c(F)c3)CC2)n1 | 4 | 1
O=C(NCCCn1cccn1)C1(N2CCCCC2)Cc2ccccc2C1 | 2 | 3
CC1CN(C(=O)c2ccc(NC(=O)C3CC3)cc2)c2ccccc2O1 (stereo unspecified) | 8 | 2
COc1ccc(C(C)C)cc1S(=O)(=O)Nc1cccc(Cl)c1Cl | 0 | 3
O=C(O)CCSc1cc(-c2ccccc2)nc(SCCC(=O)O)n1 | 2 | 3
CN(C)C1(CNS(=O)(=O)c2cccc(Cl)c2)CCCC1 | -4&-2 | 0&-2
CCCC(=O)N(CCCN1CCOCC1)c1nc2c(Cl)cccc2s1 | -4 | -8
Cc1[nH]cnc1-c1nccn1CC(c1ccccc1)N1CCCCCC1 (stereo unspecified) | 6 | 3
NC(=O)C1CCCC1NC(=O)c1ccc(Br)c(F)c1 (stereo unspecified) | 3 | -1
CC(=O)NCCn1ccnc1-c1ccc(Cl)c(Cl)c1 | 13 | 10
Cc1ccsc1CNC(=O)CC1NC(=O)c2ccccc21 (stereo unspecified) | 3 | 0
S=C(NCc1ccccc1)NN=C1CC2CC=CC12 (stereo unspecified) | 9 | 9
O=C(COc1ccc(Cl)c2cccnc12)NCc1cn[nH]n1 | 1 | -3
CCC(C(=O)N(CCOC)Cc1cc(NC(=O)c2ccco2)ccc1N(C)C)c1ccccc1 (stereo unspecified) | -1 | 9
c1cnc2c(-c3ccc(-c4ccn[nH]4)cc3)cnn2c1 | 0 | -1
Cc1cc[n+](CC(=O)C=C2N(C)c3ccccc3C2(C)C)c(C)c1 | 4 | 1
O=[N+]([O-])c1cccc(-c2cn3cc(-c4ccccc4)ccc3n2)c1 | 14 | 7
O=C(NCCNC(=O)C1CCN(C(=O)C2CCC2)CC1)c1ccccc1 | -1 | 2
CCOc1ccc(-c2cc(C)n3nc(C(N)=O)cc3n2)cc1 | -3 | -6
COCCn1c(-c2cc(OC)ccc2OC)csc1=Nc1ccc(OC)cc1 | -1 | -9
O=C(CNS(=O)(=O)c1ccc(F)c(Cl)c1)N1CCCC1 | 0 | 5
Cc1nc(CNC(=O)c2c[nH]c3ccccc23)nc2c1CCCC2 | 27 | 14
O=C(NCC1CC1)c1csc(N2CCNC2=O)n1 | 3 | 1
CCN1CCN(c2nc(C)c3c(n2)CC(c2ccco2)CC3=O)CC1 (stereo unspecified) | 40 | 36

Three entries already listed, sorted by count of non-hydrogen atoms, highest first.
molecule | NPYLR7 agonist | NPYLR7 agonist max-min
CCCC(=O)N(CCCN1CCOCC1)c1nc2c(Cl)cccc2s1 | -4 | -8
O=C(O)CCSc1cc(-c2ccccc2)nc(SCCC(=O)O)n1 | 2 | 3
NC(=O)C1CCCC1NC(=O)c1ccc(Br)c(F)c1 (stereo unspecified) | 3 | -1

2 compounds drawn at random from those above:
molecule | NPYLR7 agonist | NPYLR7 agonist max-min
CCN1CCN(c2nc(C)c3c(n2)CC(c2ccco2)CC3=O)CC1 (stereo unspecified) | 40 | 36
O=[N+]([O-])c1cccc(-c2cn3cc(-c4ccccc4)ccc3n2)c1 | 14 | 7

Molecules listed so far that contain two or more sulfur atoms, in the order listed:
molecule | NPYLR7 agonist | NPYLR7 agonist max-min
Cc1nc2cc(OCc3cc(C(=O)N4CCSCC4)no3)ccc2s1 | 20 | 10
CCC(=O)N(c1nnc(SCC(=O)c2[nH]c(C)c(C(C)=O)c2C)s1)C1CC1 | 7 | 6
C[C@H](C(=O)N1CCSCC1)C1CC[C@@]2(C)Cc3sc(C4CCNCC4)nc3[C@@H](C)[C@@H]2[C@H]1O (stereo partly specified) | -8 | -13
O=C(O)CCSc1cc(-c2ccccc2)nc(SCCC(=O)O)n1 | 2 | 3

Next section
molecule | NPYLR7 agonist | NPYLR7 agonist max-min
C=CCN(CC(=O)N(CCOC)Cc1cccn1C)C(=O)Nc1ccc(F)c(F)c1 | -7 | -4
Cc1ccc(C)c(Cn2c(=O)n(CC3CCC(C(=O)N4CCOCC4)CC3)c(=O)c3sccc32)c1 (stereo unspecified) | 0 | -1
CN(NC(=O)c1ccc[nH]c1=O)c1ccccc1 | -1 | -2
O=S1(=O)CCC(S(=O)(=O)NCc2ccco2)C1 (stereo unspecified) | 5&3 | 5&2
CC(C)=CC(=O)NCCN1CCCC(CO)C1 (stereo unspecified) | 1 | 0
Cc1cc2nc(Nc3nc(C)c(C)c(=O)[nH]3)nc(C)c2cc1C | 7 | 5
COc1cc(C(=O)Nc2nsc(-c3ccccc3)n2)cc(OC)c1OC | 1 | 7
CCOc1ccccc1CN1CCC(N2CCC(C(=O)N3CCCC3)CC2)CC1 | 9 | 7
CC(=O)NC12CC3CC(C)(C1)CC(NC(C)=O)(C3)C2 | 0 | -4
CN(NC(=O)c1cccnc1Oc1ccc(Cl)cc1)c1ccccc1 | -5 | -12
CSc1nc(C(=O)N2CCCC(C(=O)c3ccc(-c4ccccc4)cc3)C2)cs1 (stereo unspecified) | -4 | -8
O=C1NC2(CCN(Cc3cccs3)CC2)Nc2ccccc21 | 5 | 28
CN1CC2(CCN(Cc3noc(C(C)(C)C)n3)CC2)CC1C(=O)O (stereo unspecified) | 8 | 8
COc1cccc(Cc2nsc(N(CCC(=O)NC(Cc3ccccc3)c3ccccc3)Cc3ccco3)n2)c1 (stereo unspecified) | -11 | -14
CCC1CN(C(=O)CNc2cc(Cl)ccc2N2CCOCC2)CCO1 (stereo unspecified) | 1 | 0
CC(=O)N[C@H]1C[C@@H](c2cc(C(C)(C)C)n[nH]2)O[C@@H](C2CCCCC2)C1 | 14 | 5
CC1(C)CC(=O)c2cc(CC(=O)O)n(-c3cccc(C(=O)O)c3)c2C1 | 26 | 14
CC(=O)Nc1ccc(CN2CCC(n3nc(C)cc3C)C2)cc1 (stereo unspecified) | -3 | -3
Cc1cc(-n2cc(C#N)c(=O)[nH]c2=O)ccc1N1CCCC1 | 5&-2 | 1&-3
N#CC(C#N)=C1C=C2C=C(N3CCN(Cc4ccccc4)CC3)CCC2CC1 (stereo unspecified) | 47* | 65*
C/C(=C(/CCO)SSCC1CCCO1)N(C=O)Cc1cnc(C)nc1N (stereo unspecified) | 51 | 29
Cc1noc(C)c1COC1CN(CC(C)C)C(=O)CN(C2CCN(C(C)C)CC2)C1 (stereo unspecified) | 19 | 7
Nc1nc(Cn2cnc3ccccc3c2=O)nc(Nc2ccc(Cl)cc2)n1 | -1 | -3
CCCCOCC(=O)N1Cc2cnc(CC)nc2C1 | 1 | -9
COCCCNC(=O)c1c2c(nc3ccccc13)CCCC2 | 20 | 19
O=C1NCCN2CCN(C3CCN(C(=O)c4cccs4)CC3)CC12 (stereo unspecified) | 2 | 0
CCOC(=O)c1cc(-c2cccc(NC(=O)c3cc(C)on3)c2)n(-c2ccc(OC)cc2)n1 | 27 | 18
Cn1c(C2c3[nH]c4ccccc4c3CCN2Cc2cccc3cccnc23)nc2ccccc21 (stereo unspecified) | 5 | 0
CN(CCc1ccccc1)C1(C(=O)NCc2ccncc2)Cc2ccccc2C1 | 6 | 3
Cc1ccc(C)c(NC(=O)CSc2nnc(CNC(=O)c3cccc4ccccc34)n2-c2ccccc2)c1 | -5 | 4
Cc1sc2c(c1C)C1=NS(=O)(=O)CCN1C=N2 | 2 | -1
O=C(O)CN1C(=O)/C(=C2/Sc3ccccc3N2CCCS(=O)(=O)O)SC1=S | 16 | 17
NC(=O)c1ccnc(N2CCN(Cc3ccc(Cl)c(Cl)c3)CC2)c1 | 11 | -2
Cc1ccc2c(-c3cnc(N)c(N4CCC(C(O)C(C)C)CC4)n3)cccc2n1 (stereo unspecified) | -2 | -3
O=C1CC2(CCN(C(=O)CC(CC(=O)N3CCC4(CC3)CC(=O)c3cc(F)ccc3O4)(c3ccccc3)c3ccccc3)CC2)Oc2ccc(F)cc21 | 20 | 4
O=C(CCc1nnc(-c2ccsc2)o1)NC1CCc2ccccc21 (stereo unspecified) | 0&19 | -2&7
CCc1ccsc1C(=O)NC(C)(C)c1nc(C)cs1 | 1 | 0
CSCCSc1nc2sc3c(c2c(=O)n1CC1CCCO1)CCC(C)C3 (stereo unspecified) | -3 | 1
O=C(O)CSc1nnc(NC2CCCCC2)s1 | 0 | 1
COc1cccc(OC)c1-c1ccc(-n2cncc2C(=O)NCc2cccc(Cl)c2Cl)cc1 | 2 | 9
O=C(Cc1cccs1)NC1CCN(c2ccccc2C(=O)NCc2ccco2)CC1 | -6 | -1
COc1cc([N+](=O)[O-])cc2sc(NC(=O)C3CC3)nc12 | 1 | -2
COc1ccc(CCN(Cc2ccc(C)o2)C(=O)CN(C(=O)c2cccc(Br)c2)C2CC2)cc1OC | -8 | -19
Cc1ccccc1C(=O)NNC(=O)COc1ccc(Cl)cc1 | -6 | -10
Nc1c(C(=O)CCC(=O)O)oc2ccc(Cl)cc12 | 3 | -2
CC1=NN(c2ccc(Cl)c(C(=O)O)c2)C(=O)/C1=C\c1ccc(Br)cc1 | 8 | 5
O=C(Nc1ccc(N2CCCCC2)c(C(=O)NCCc2ccccc2)c1)c1cc(C(F)(F)F)cc(C(F)(F)F)c1 | -2 | 12
CCOCCCn1c(=N)c(C#N)cc2c(=O)n3cccc(C)c3nc21 | 3 | 9
COc1ccc(NC(=O)Cn2nc3c(SC4CCCCC4)nccn3c2=O)cc1OC | -7 | -7
Cc1cc(C)n(-c2ccc(CNC(=O)c3ccc4c(c3)NC(=O)CS4)cn2)n1 | 4 | -1
CN(/C=C/C(=O)C(F)(F)F)c1ccccc1C(=O)O | 6 | 4
NC(C(=O)O)c1cc(O)ccc1Cl (stereo unspecified) | 9 | -5
CC(NC(=O)Cc1csc(-c2ccccn2)n1)c1ccc(-c2ccccc2)cc1 (stereo unspecified) | -13 | -14
CCC(=O)Nc1c(-c2ccccc2)nc2cc(C)ccn12 | -10 | -2
COc1ccc(CCN(C)C2CCCN(Cc3nc(C(C)C)cs3)C2)cc1OC (stereo unspecified) | 4 | 1
CCOCCC(=O)Nc1c(N2CCCC2)cccc1N1CCCC1 | 1 | -2
O=c1cc(CSCc2nc(-c3ccsc3)no2)nc2sccn12 | 2 | -1
Cc1c(C(=O)O)sc2nc(-c3ccc(N4CCOCC4)nc3)[nH]c(=O)c12 | -2 | -5
O=C(NC1CCCCC1)c1nnc2n1CCN(C(=O)c1ccccc1)C2 | 10 | 6

Only part of the results is shown. The share of hits here may be higher or lower than overall.
